Screening results (PubChem BioAssay)
Sa ugtP lethal = compounds lethal to S. aureus RN4220 ugtP deletion mutant; OD600 growth, 16 h; some inactives read as strong as hits; 0.54% of 330,000 active; growth inhibition, % (test concentration not listed); AID 1259309;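 active means z-score under -3 and OD600 up to 0.15 on both plates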;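 further: plate controls were untreated wells for no effect and antibiotic for full effect; wells of about 80 µL received 100 nL stock; the first replicate is given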
Sa RN4220 lethal = kills Staphylococcus aureus RN4220; 0.33% of 330,000 active; S. aureus RN4220 growth, OD600, 16 h; AID 1259311; inhibition, % (concentration not given with the values);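 active means z-score of -3 or lower and OD600 up to 0.18 on both plates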;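 further: plate controls were untreated cells for no effect and reference antibiotic for full effect; stock transfer was 100 nL into about 80 µL; one replicate is shown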
PrP UTR inh = suppresses PrP 5' UTR mRNA reporter expression. cell-based PrP 5' UTR mRNA reporter, plate reader. 0.35% of 340,000 active. inhibition, % (concentration not given with the values). AID 488862;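 active means every replicate at 50% or more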;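 further: 0 = median of the neutral control wells; tested in H4 reporter cells; numbers are from one replicate; inactives centre near -14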
BJeLR viability = kills HRASV12-expressing BJeLR cells | BJeLR (HRASV12) viability, CellTiter-Glo ATP luminescence, 48 h; reference of the scale not given here | 0.17% of 300,000 active | inhibition, % (concentration not given with the values) | AID 1554;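 active means replicate mean above 50%; inconclusive means above 50% but judged a plate artefact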;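 further: 50 nL library stock added to about 25 µL; numbers are from one replicate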
Mtb hypoxia rep = reduces hypoxia-regulated biosensor signal in M. tuberculosis; AID 1159583; M. tuberculosis hypoxia-regulated fluorescent reporter, fluorescence; 0.1% of 300,000 active; fluorescence inhibition, % (test concentration not listed);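 active means 35 to 45% if threefold the growth effect, above 45% if 1.5-fold the growth effect; inactive means the rest, general growth blockers included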;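 further: wells of about 50 µL received 100 nL stock; 0% = vehicle wells and 100% = reference inhibitor wells; whole bacteria with a GFP reporter of the hypoxia response; strong numbers were not always called active; many hits fall short of the cut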
Autofluor counter = compound fluorescence in toxin protease inhibitor counterscreen; compound autofluorescence counterscreen, microsphere flow cytometry; active compounds read high; fluorescence intensity (concentration not given with the values); 3.1% of 360,000 active; AID 624483;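 active means at least 3 SD above the mean of all compounds, about 16000 in these data; inconclusive means too few beads counted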;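 further: 100 nL of 1 mM stock went into each well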
Mtb hypoxia rep growth = second read-out of Mtb hypoxia rep, no call of its own (marks repeat the call); growth inhibition, %; measured here: M. tuberculosis growth (absorbance);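 0% = vehicle and 100% = reference antibiotic; read after six days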
The depositor's hits bear a star; u = inconclusive; x = no result given. Rows are unselected; 4.1% or so of the library scored in one or more.

SMILES | Sa ugtP lethal | Sa RN4220 lethal | PrP UTR inh | BJeLR viability | Mtb hypoxia rep | Mtb hypoxia rep growth | Autofluor counter
CCCCn1c(SCC(=O)Nc2ccc3c(c2)OCO3)nc2c1c(=O)n(C)c(=O)n2C | 6 | 7.0 | -24 | -2 | 6 | 10 | 9792
COc1ccc(CC(=O)N(C)Cc2ccc(OC(F)F)cc2)cc1S(=O)(=O)N1CCOCC1 | 4 | 1.7 | 0 | x | 0 | -1 | 2994
CCC1CCCCN1C(=O)COc1c(Br)cc(Br)c2cccnc12 (configuration not stated) | 2 | 6.6 | -24 | -2 | 15 | 13 | 4749
NC(=O)COc1ccc2cc(-c3ccccc3)c(=O)oc2c1 | 3 | 2.8 | -20 | -1 | 7 | 3 | 5623
CC=C(C)C(=O)OC1C(OC(C)=O)c2c(ccc3ccc(=O)oc23)OC1(C)C (configuration not stated) | 4 | 9.2 | x | x | 17 | 9 | x
CC(C)OCCCn1c(SCC(=O)N2CCc3ccccc32)nc2ccccc2c1=O | 3 | 4.1 | -6 | -14 | 12 | 6 | 2579
O=C(/C=C\Nc1ccc(S(=O)(=O)Nc2ncccn2)cc1)c1ccccc1 | 9 | 3.8 | -12 | 0 | -1 | -7 | 3112
Cc1cc(C)nc(SCc2ccc(C(=O)NN=Cc3ccccn3)cc2)n1 | 7 | 12 | x | x | 10 | 3 | x
COCCN1C(=O)/C(=C/c2ccc(N3CCCC3)cc2C)SC1=S | -11 | 5.0 | -34 | x | 1 | 7 | 18023*
CCc1ccccc1NC(=O)c1ccc(OCc2c(C)noc2C)cc1 | 2 | 3.7 | -21 | x | 13 | 9 | 3776
COc1ccc(NC(=O)c2ccccc2NC(=O)c2ccco2)cc1 | -7 | -1.7 | 13 | -6 | -7 | 2 | 3834
CCSCc1nnc(SCC(=O)Nc2cc(F)ccc2C)n1C | 5 | -2.3 | 4 | 0 | 12 | -4 | 3222
COc1cc(O)c(C=NNC(=O)c2ccncc2)c(OC)c1[N+](=O)[O-] | 2 | 2.1 | x | x | 8 | 7 | x
Cc1ccc(-n2c(C)cc(C(=O)CN3CCOCC3)c2C)cc1C | -4 | 0.0 | -45 | 3 | -2 | -1 | 4385
Cc1[nH]nc2c1C1(CCN(C(=O)c3ccccc3)CC1)C(C#N)=C(N)O2 | -4 | -0.7 | -4 | -3 | 2 | 9 | 4156
CCOC(=O)/C(C(N)=NCCCO)=C(/O)c1ccccc1 | 13 | 8.4 | -8 | 2 | 5 | 11 | 7115
Cc1ccc(C(c2nnnn2C2CCCC2)N2CCc3ccccc32)cc1 (configuration not stated) | 21 | 7.8 | -6 | -5 | 13 | 7 | 2354
O=C(NN=Cc1ccc2c(c1)OCO2)C(=O)Nc1ccccc1Cl | -1 | -1.5 | x | x | 0 | 8 | x
COc1ccccc1-n1c(C)cc(/C=C2/C(=N)N3C(=NC2=O)SN=C3S(C)(=O)=O)c1C | 3 | 19 | -14 | -9 | 0 | -19 | 2031
COc1ccc(N2C(=O)C(CC(=O)Nc3ccccc3)N(Cc3ccc(OC)c(OC)c3)C2=O)cc1 (configuration not stated) | 5 | 7.8 | -22 | 3 | -7 | -7 | 2542
COCCNC(=O)CSc1nc(-c2ccccc2)cs1 | 10 | 5.0 | x | 4 | 3 | 6 | 5758
COc1cc(Br)cc(C=NN(CCO)C2=NS(=O)(=O)c3ccccc32)c1OC | -2 | 4.1 | x | x | 0 | -3 | x
CCOC(=O)c1cc(C)sc1NC(=O)c1ccc(Cl)s1 | 1 | 1.4 | 1 | 3 | x | x | 3225
Cn1c(NCc2ccco2)nc2c1c(=O)n(Cc1ccc(Br)cc1)c(=O)n2C | -19 | -0.5 | -28 | 2 | -6 | -4 | 10718
CCCCc1nc2ccccc2c(=O)n1NC(=O)c1c(O)c2c(n(CC(C)C)c1=O)CCCC2 | -7 | -1.9 | -9 | -8 | -9 | -4 | 11017
C=CCn1c(NS(=O)(=O)c2ccccc2)c(S(=O)(=O)c2ccc(C)cc2)c2nc3ccccc3nc21 | -4 | 9.7 | -23 | 5 | 6 | 1 | 7741
Cc1cc(C)n(-c2nnc3n2N=C(c2c[nH]c4ccccc24)CS3)n1 | -10 | -7.7 | -13 | 18 | 20 | 13 | 3248
CCn1c(C)nc2cc(C(=O)NNC(=O)Nc3cccc(Cl)c3)ccc21 | 1 | 4.9 | -20 | -3 | 2 | 0 | 3284
O=C(COC(=O)c1cccs1)NC1CCCC1 | 3 | 3.2 | 4 | -6 | 8 | 6 | 3274
CCCCn1cc(SCC(=O)O)c2ccccc21 | 2 | 13 | -36 | -17 | 9 | 13 | 8590
COc1nc(Nc2ccc([N+](=O)[O-])cc2)nc(NC(C)C)n1 | x | x | 30 | 0 | x | x | 10156
O=C(NCC(c1ccco1)N1CCN(c2ccc(F)cc2)CC1)c1ccc2c(c1)OCO2 (configuration not stated) | 13 | 3.2 | -7 | 10 | 7 | 4 | 5770
CC(=O)c1c(C)[nH]c(C(=O)OCC(=O)N2CC(=O)Nc3ccccc32)c1C | -6 | 6.2 | -20 | -1 | 7 | 8 | 2023
Cc1ccc2nc(SCC(=O)c3cc(C)n(C)c3C)[nH]c2c1 | -10 | -4.1 | -12 | -8 | 0 | 17 | 2270
CC(c1ccccc1)n1c(CCCO)nc2ccccc21 (configuration not stated) | 3 | 5.9 | -17 | 7 | -3 | -1 | 4080
CNS(=O)(=O)c1cn(CC(=O)NCc2ccc(F)cc2)cc1S(=O)(=O)NC | 11 | 5.2 | -11 | -2 | -11 | 0 | 4595

Continued, starting with the last 5 of the part before.
SMILES | Sa ugtP lethal | Sa RN4220 lethal | PrP UTR inh | BJeLR viability | Mtb hypoxia rep | Mtb hypoxia rep growth | Autofluor counter
O=C(NCC(c1ccco1)N1CCN(c2ccc(F)cc2)CC1)c1ccc2c(c1)OCO2 (configuration not stated) | 13 | 3.2 | -7 | 10 | 7 | 4 | 5770
CC(=O)c1c(C)[nH]c(C(=O)OCC(=O)N2CC(=O)Nc3ccccc32)c1C | -6 | 6.2 | -20 | -1 | 7 | 8 | 2023
Cc1ccc2nc(SCC(=O)c3cc(C)n(C)c3C)[nH]c2c1 | -10 | -4.1 | -12 | -8 | 0 | 17 | 2270
CC(c1ccccc1)n1c(CCCO)nc2ccccc21 (configuration not stated) | 3 | 5.9 | -17 | 7 | -3 | -1 | 4080
CNS(=O)(=O)c1cn(CC(=O)NCc2ccc(F)cc2)cc1S(=O)(=O)NC | 11 | 5.2 | -11 | -2 | -11 | 0 | 4595
CCCN(C(=O)COC(=O)CCOc1ccc(C)cc1)c1c(N)n(Cc2ccccc2)c(=O)[nH]c1=O | 22 | -1.1 | -22 | -8 | 6 | 5 | u
N/C(Cc1ccc(Cl)cc1Cl)=N\OC(=O)c1ccccc1F | 0 | -0.6 | -8 | -4 | 1 | 6 | 2448
CCOC(=O)C1=C(C)Nc2nc(=S)[nH]n2C1c1ccc(Cl)cc1 (configuration not stated) | -1 | 17 | -11 | -2 | 5 | 11 | 3011
CCOC(=O)NC(C(Cl)(Cl)Cl)S(=O)(=O)c1ccccc1 (configuration not stated) | 4 | 5.9 | -22 | 3 | -2 | -3 | 3890
Cc1cc(C)cc(-n2cccc2/C=C2/C(=N)N3C(=NC2=O)SN=C3S(C)(=O)=O)c1 | 3 | 13 | -19 | -4 | 5 | 6 | 2852
CSc1cccc(NC(=O)/C=C/c2ccc(Cl)cc2)c1 | 55 | 29 | -43 | 2 | -1 | 4 | 8849
O=C(c1ccc(S(=O)(=O)N2CCOCC2)cc1)N(c1cccc(Cl)c1)C1C=CS(=O)(=O)C1 (configuration not stated) | -1 | 2.0 | -11 | 0 | 0 | 8 | 4132
CC(C)(C)C1=NN=C2c3ccccc3C(=O)C21 (configuration not stated) | -11 | -3.1 | -17 | 5 | 15 | 7 | 3751
CCOc1ccc(OCCC(=O)Nc2ccc3c(c2)OCO3)cc1 | 3 | 1.3 | -17 | x | -1 | 4 | 3959
CCCn1nnnc1NC(=O)c1cc(Cl)ccc1Cl | 11 | 20 | 4 | 1 | 8 | 10 | 9391
Cn1nc(C(F)(F)F)c(-c2ccc(Br)cc2)c1NC(=O)c1nccnc1C(=O)O | -1 | 0.0 | -27 | -8 | -5 | 9 | 3850
CC1CCc2c(sc3ncn(CCO)c(=O)c23)C1 (configuration not stated) | 4 | 4.6 | -69 | 3 | -3 | 17 | 4230
CN(C)S(=O)(=O)c1ccc2c(c1)nc(CCC(=O)NCc1ccc(Cl)cc1)n2C | 4 | 6.0 | 13 | -1 | 0 | -5 | 3624
O=C(CN1C(=O)C2C3C=CC(C4CC34)C2C1=O)Nc1cnc2ccccc2c1 (configuration not stated) | -3 | 4.2 | -1 | 5 | 7 | 6 | 2589
O=C(O)/C=C\C(=O)Nc1ccc(F)c(F)c1F | 5 | 4.6 | 1 | 5 | 6 | 3 | 4734
CC1(C(=O)NCc2ccccc2)Oc2ccccc2NC1=O (configuration not stated) | 2 | 6.7 | -7 | -1 | 16 | 11 | 2780
Cc1c(Cl)cccc1NC(=O)c1cc(-c2ccco2)on1 | 11 | 0.3 | -39 | -7 | 14 | -2 | 5437
COc1ccc(Nc2nnc(SCC(=O)/C=C3/N(C)c4ccccc4C3(C)C)s2)cc1 | -11 | 1.3 | -14 | 8 | 0 | -2 | 2283
Cn1c(CO)cnc1SCc1c(Cl)cccc1Cl | -2 | 2.5 | -6 | -1 | -2 | 4 | 22193*
Cn1c2ccccc2c(=O)c2ccc(C#CC3(N)CCCCC3)cc21 | -16 | -25 | -11 | -4 | 7 | 14 | 4227
CCOC(=O)c1c(C)n(Cc2ccco2)c2ccc(OC)cc12 | -2 | 3.3 | -64 | 6 | -15 | -9 | 4190
Cc1ccc(C(CC(=O)O)C2CCOC(C)(C)C2)cc1 (configuration not stated) | -7 | 12 | -11 | 0 | 12 | 7 | 5587
Cc1ccc(CNc2nc(-c3cccnc3)nc3ccccc23)cc1 | -15 | -14 | -7 | -12 | -2 | 9 | 5245
CC(C)Oc1ccc(S(=O)(=O)N2CCOCC2)cc1NC(=O)C1CSC2(C)CCC(=O)N12 (configuration not stated) | 7 | 0.1 | -20 | 3 | 1 | 3 | 6055
CC(C)c1nnc(N2C(=O)c3oc4ccccc4c(=O)c3C2c2ccco2)s1 (configuration not stated) | -2 | 0.7 | -28 | -8 | x | x | 3618
NC(=O)C1CCN(C(=O)COc2cccc3ccccc23)CC1 | 1 | 0.9 | -18 | 0 | 2 | -4 | 13267
NC(=O)c1ccc[n+](CC(=O)c2ccccc2)c1 | 6 | 0.4 | x | 6 | 3 | 3 | 6099
Cc1c(C(=O)Nc2nc(-c3ccccn3)cs2)oc2ccccc12 | 81 | 83 | 1 | x | 13 | 8 | 3014
COC(=O)c1c(C)[nH]c(C)c1-c1ccc([N+](=O)[O-])cc1 | -2 | 0.0 | -3 | 6 | 8 | 8 | 3817
CCn1nnnc1SCC(=O)N1CCCCC1 | 3 | 2.3 | -22 | -12 | 9 | -1 | 6698
COc1ccc(S(=O)(=O)N(C)c2ccc(C(=O)NCc3ccccn3)cc2)cc1 | 2 | 4.5 | -5 | -6 | 4 | 7 | 6009
COc1ccc(-n2c(Cn3nnc4ccccc43)nnc2SCC(=O)O)cc1 | 4 | 6.4 | -6 | -8 | 5 | 6 | 8884
CCOC(=O)C(=NNc1ccccc1)Sc1nnnn1-c1ccc(C)cc1 | 2 | -2.1 | x | x | -2 | -19 | x
CCC(=O)OCC(=O)c1cc(C)n(-c2ccc(Br)cc2)c1C | -4 | -7.3 | -1 | -25 | -3 | 5 | 4233
CCOC(=O)c1[nH]c2ccc(C)cc2c1N | -10 | 3.5 | -115 | -2 | 4 | 7 | 22785*
CCC(CC)C(=O)NCCc1cc2ccc(C)cc2[nH]c1=O | 12 | 0.6 | -5 | 3 | 12 | 13 | 4483
COc1ccc(CCNC(=O)CCCOc2cccc(C)c2C)cc1OC | 3 | 2.7 | -24 | -7 | 1 | 3 | 4140
Cc1cc(=O)[nH]c(/N=C(\N)Nc2ccc(SC(F)F)cc2)n1 | x | x | -29 | -13 | x | x | 3830
Cc1cc(C)c2sc(N(CCCN(C)C)C(=O)c3ccc(Br)s3)nc2c1 | 0 | 0.3 | -39 | 12 | x | x | 4534
O=C(NCCN1CCOCC1)c1cc(Sc2cccc(Cl)c2)nc2ccccc12 | 12 | 4.8 | 9 | 6 | 9 | 12 | 2504
